MLL AF4-AF9 inh = MLL-AF4/AF9 protein interaction inhibition; AlphaScreen, biotin-AF4 peptide binding to FLAG-AF9; inhibition, % at 10 µM; P42568; actives 0.47% (n = 350,000); AID 651704;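 active = every replicate reaching a set inhibition limit, whatever the replicate mean, cut at about 25% in these data; inconclusive = mean inhibition reaches that limit but some replicates miss it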;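 also: 0% = plate neutral control median and 100% = total signal loss; the record names both 10 and 1 µM as test concentration; the first replicate is given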
Target sequence (P42568 whole entry, looked up): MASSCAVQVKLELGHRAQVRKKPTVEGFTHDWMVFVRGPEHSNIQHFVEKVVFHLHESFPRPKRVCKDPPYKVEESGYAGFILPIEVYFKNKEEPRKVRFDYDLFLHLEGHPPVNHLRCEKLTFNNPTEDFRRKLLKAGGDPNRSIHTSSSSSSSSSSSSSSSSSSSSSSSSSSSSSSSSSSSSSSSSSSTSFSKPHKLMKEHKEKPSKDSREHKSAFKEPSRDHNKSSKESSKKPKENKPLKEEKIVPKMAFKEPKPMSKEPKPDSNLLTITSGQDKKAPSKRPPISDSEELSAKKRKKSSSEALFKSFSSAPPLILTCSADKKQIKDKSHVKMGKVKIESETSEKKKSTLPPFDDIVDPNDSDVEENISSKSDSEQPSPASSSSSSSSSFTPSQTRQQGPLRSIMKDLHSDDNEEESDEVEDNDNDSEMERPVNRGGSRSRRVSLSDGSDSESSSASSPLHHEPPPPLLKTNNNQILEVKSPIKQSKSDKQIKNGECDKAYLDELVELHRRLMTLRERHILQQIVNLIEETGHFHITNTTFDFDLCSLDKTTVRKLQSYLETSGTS
T cruzi repl = blocks replication of Trypanosoma cruzi. T. cruzi beta-gal in NIH3T3, luminescence, 90 h. inhibition, % (no concentration beside the values). actives 1.4% (n = 300,000);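 active = mean inhibition across valid replicates above about 55%, limit read from the data; inconclusive = mean below that limit but half or more replicates reach it; inactive = mean below it, under half of replicates reach it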;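 also: signal also drops with host cell toxicity which is not excluded here; 0% = plate median of DMSO wells and 100% = zero luminescence signal; higher percent means less beta-gal luminescence so fewer parasites; stock transfer was 50 nL into about 50 µL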
A1 inh = inhibitors of the anti-apoptotic protein A1, read as caspase activation. MEF A1-2A-BIM cells, Caspase-Glo 3/7 luminescence, 3 h; percent of clofoctol response, vehicle zero. caspase activation, % (concentration not given with the values). actives 0.066% (n = 330,000). AID 2462;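 active = over half of replicate activation scores above 10%, or exactly half above 10 with the replicate mean above 10; inconclusive = replicate mean below 10 yet half the replicates above 10; inactive = over half of replicates below 10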;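 also: wells of about 30 µL received 50 nL stock; many hits fall short of the cut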
RanGTP-Impb inh = disruptors of Ran-importin-beta complex formation – biochemical, FRET, CFP-Ran, YFP-importin-beta, homogeneous, primary screen; cell-free CFP-Ran/YFP-importin-beta FRET ratio; inhibition, % (test concentration not listed); actives 1.1% (n = 300,000); AID 2216;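 active = most replicates above 15%; inconclusive = exactly half above 15%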;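 also: 0% = DMSO wells and 100% = Ran loaded with GDP instead of GTP; wells of about 40 µL received 100 nL stock; the first replicate is given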
LANA-H2A inh = blocks KSHV LANA binding to histone H2A/H2B; inhibition, % (concentration not given with the values); Q9QR71; cell-free LANA-H2A/H2B peptide, fluorescence polarization; AID 2629; actives 0.6% (n = 320,000); in the data active = inhibition mostly above about 10%, no sharp cut-off; inactive = mostly below about 6.7%;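 also: stock transfer was 7.5 nL into about 10 µL; 0% = median of vehicle wells and 100% = median of positive control wells; one replicate is shown; the record names a cut of 25% in any replicate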
Calb FLC = affects C. albicans growth with fluconazole; growth inhibition, % (concentration not given with the values); actives 0.57% (n = 300,000); C. albicans CaCi-2 (fluconazole-resistant clinical isolate) + fluconazole, Alamar Blue growth, 48 h;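 active = most replicates above 75%; inconclusive = exactly half above 75%; inactive = most below 75%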;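 also: all wells also contain fluconazole at 8 µg/ml as a sub-toxic cotreatment; 0% = median of DMSO wells and 100% = median of geldanamycin control wells; wells of about 8 µL received 7.5 nL stock; the first replicate is given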
Beta apoptosis = blocks beta cell apoptosis; actives 0.8% (n = 300,000); AID 435005; INS-1E cytokine-induced death, ATP luminescence, 48 h; percent of positive-control rescue, neutral wells zero; protection from apoptosis, % (concentration not given with the values);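 active = all replicates at 75% or more, or half of them and the mean; inconclusive = half reach 75% but not the mean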;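 also: 0% = cytokine-treated negative control wells and 100% = positive control rescue; higher means more ATP so stronger rescue from cytokine killing; wells of about 40 µL received 100 nL stock; the first replicate is given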
Vif A3G = HIV-1 Vif–A3G interaction blockers – biochemical, TR-FRET, GST-Vif 1-94, biotin-A3G peptide, dose response retest, primary screen (AID 1117319); TR-FRET GST-Vif / biotin-A3G peptide binding; higher % means a stronger effect; test concentration not given here; strong numbers were not always called active; one-dose inhibition, %; IC50 in µM for titrated hits; actives 0.57% (n = 260,000);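 active = above the screen mean plus three standard deviations and confirmed in dose response; inconclusive = results disagree or hit not tested in dose response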;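 also: Vif residues 1-94 fused to GST binding biotinylated APOBEC3G peptide 110-148; 0% = full assay without inhibitor and 100% = GST in place of GST-Vif; retest series ran down from 100 µM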
* = called active by the depositor; ? = inconclusive; · = not tested or not shown; & = joins results of further samples.

SMILES | MLL AF4-AF9 inh | T cruzi repl | A1 inh | RanGTP-Impb inh | LANA-H2A inh | Calb FLC | Beta apoptosis | Vif A3G
CN(C)S(=O)(=O)c1ccc(-c2cn3ccccc3n2)cc1 | · | 3 | -2.4 | ? | -3.0 | -16 | 5 | -2%
Cc1c(NC(=O)C(C)OC(=O)/C=C/c2ccc3c(c2)OCO3)c(=O)n(-c2ccccc2)n1C (stereo not given) | 0.3 | -8 | 0.2 | -1.1 | 5.6 | 12 | -2 | -11%
CCn1c(=O)c(C(=O)Nc2ccccc2F)c(O)c2ccccc21 | 3.4 | -9 | 0.5 | -0.8 | -0.6 | 1 | -1 | ·
CC(C)C[C@H](NC(=O)c1nc[nH]c1C(=O)NCCCCCNC(=O)OC(C)(C)C)C(=O)OC(C)(C)C | 4.5 | 14 | 0.5 | 4.7 | -1.4 | -7 | 9 | ·
CCN(CC)c1ccc(CNc2nc3ccccc3n2CCN2CCOCC2)cc1 | 16 | 3 | 0.2 | ? | -8.3 | -25 | 2 | 11%
Cc1ccc(SCC(=O)NNC(=O)CNC(=O)c2ccccc2F)cc1 | -0.6 | · | 0.8 | · | -7.1 | · | -2 | 2%
CCCC(=O)Nc1ccc(C(=O)N/N=C/c2ccc[nH]2)cc1 | · | -6 | -0.2 | 2.5 | -0.4 | -1 | 3 | 4%
COc1cccc(C(=O)N2CCC(C(=O)NCc3ccco3)CC2)c1 | 0.3 | 3 | -0.3 | 2.2 | -1.4 | 0 | 0 | -2%
COC(=O)CC(=O)CSc1nc2c(cc1C#N)CCC2 | · | -11 | 0.5 | 3.8 | -11 | -1 | · | 2%
OCC1(Cc2ccccc2C(F)(F)F)CCN(Cc2cccc3cnccc23)CC1 | 3.7 | 19 | -0.5 | -0.3 | -4.3 | -7 | -6 | 1%
O=C(Nc1ccc(N2CCOCC2)cc1)c1cn2ccccc2n1 | · | -9 | -2.1 | -1.1 | -5.3 | 3 | 47 | 12%
O=C1N[C@H](Cc2ccccc2)COC(=O)[C@H](Cc2ccc(F)cc2)CC/C=C/C[C@@H]1CC(=O)N(CCO)Cc1ccccc1 | 0.7 | · | -0.6 | · | 1.2 | · | 6 | ·
O=C(OCC(=O)N1CCN(C(=O)COC(=O)c2ccc(O)cc2O)CC1)c1ccc(O)cc1O | 0.0 | -5 | 0.1 | -1.8 | -0.1 | -10 | -1 | -2%
O=C(NNC(=O)c1ccccc1O)c1ccc(Br)cc1 | -4.7 | -4 | -0.4 | 4.9 | 1.3 | 19 | -1 | ·
O=C(O)CCc1ncc(C(F)(F)F)cc1Cl | · | -6 | 0.9 | 1.1 | 1.2 | -8 | -4 | -10%
O=C(NC1CCCC1)C1CCCN1C(=O)Nc1ccc(Cl)cc1 (stereo not given) | · | -10 | 0.5 | 3.0 | 0.8 | -3 | -4 | 10%
CC(=O)N(C(C)=O)c1c(C#N)c(C)n(-c2ccccc2)c1C(=O)c1ccccc1 | · | 12 | -0.5 | 9.3 | 7.4 | 6 | -2 | 5%
CCC(C)NC(=O)Nc1ccc(Br)cc1 (stereo not given) | -3.0 | 3 | -2.0 | 0.7 | 0.2 | -8 | 3 | -1%
CCC(C)NC(=O)N[C@@H](CCSC)C(=O)OC (stereo not given in full) | · | -6 | 0.3 | -0.1 | 0.0 | 17 | -7 | 4%
COc1ccc(C(C)=O)cc1COC(=O)c1ccc2ccccc2n1 | -2.4 | -9 | -0.2 | 6.6 | 0.9 | 5 | -1 | -4%
CC(C)OC(=O)c1ccccc1C(=O)c1ccc(N)c([N+](=O)[O-])c1 | 0.8 | -11 | 2.0 | 1.7 | -2.2 | 27 | 1 | -3%
O=C(NCc1ccccc1Cl)C1CCN(S(=O)(=O)c2cccc3nonc23)CC1 | -2.0 | 3 | 0.2 | 0.8 | 0.8 | 0 | -7 | ·
C[C@H](NC(=O)c1ccco1)C(=O)NCc1cccs1 | -0.4 | · | 0.9 | · | 0.5 | · | -3 | -6%
O=C(OCc1ccc(F)cc1)c1cc2ccccc2cc1O | -14 | -3 | 1.1 | 5.4 | 1.5 | -4 | -5 | ·
COc1ccc(N2CCN(CCNC(=O)Nc3ccc(Cl)cc3)CC2)cc1 | 7.6 | -7 | -0.3 | -2.1 | -0.5 | 0 | 10 | >100µM*
Cc1cc(-c2ccccc2)nc(Oc2ccc(C(C)(C)C)cc2)c1S(C)(=O)=O | · | ? | 0.0 | 1.2 | 2.9 | -28 | · | 64%
COc1ccc(N2CCN(CCCn3c(=S)[nH]c4ncccc4c3=O)CC2)cc1 | · | 32 | 1.1 | 8.6 | -1.5 | -4 | 3 | 4%
Cc1cccc(NC(=S)NC2CCCC2)n1 | -4.9 | 7 | -0.8 | -1.5 | -0.3 | 0 | -9 | -4%
COC(=O)COc1cccc2c(=O)n(CC(=O)NCc3ccccc3)ccc12 | -0.9 | 11 | 0.0 | -1.2 | -2.7 | 1 | 2 | -1%
CCS(=O)(=O)N1Cc2ccccc2CC1C(=O)Nc1nnc(SCc2ccc(C#N)cc2)s1 (stereo not given) | -1.4 | 6 | -0.7 | 0.0 | 0.9 | 0 | 0 | 15%
O=C(NCCc1ccc(Cl)cc1)c1ncn[nH]1 | · | -13 | -0.6 | -2.9 | -2.0 | 3 | -10 | -1%
NS(=O)(=O)c1ccc(NC(=O)CSC2CCCCC2)cc1 | · | -3 | 0.4 | 2.9 | -6.0 | -1 | -6 | 4%
CCCCCOC(=O)C1[C@H]2C(=O)N(Cc3cccs3)C[C@]23C=C[C@H]1O3 (stereo not given in full) | · | 8 | -0.1 | -6.0 | 2.0 | 7 | -9 | 16%
COc1ccc(N2C(=O)CN=C2Nc2nc(C)cc(C)n2)cc1 | · | -1 | 0.2 | 1.6 | 0.3 | -14 | -1 | 16%
C=CCN1C(=O)NC2(CCCCC2)C1=O | · | -10 | 0.5 | -1.4 | -6.0 | -1 | -4 | -1%
Cc1ccccc1Nc1c(-c2ccc(N3CCOCC3)cc2)nc2cnccn12 | 4.8 | 13 | · | ? | · | -8 | · | 26%
CCOC(=O)CCC(NC(=O)c1ccc(NCN2C(=O)c3ccccc3C2=O)cc1)C(=O)OCC (stereo not given) | · | -12 | 1.0 | 0.2 | -0.3 | 2 | -6 | -1%&-4%
Cc1cccc(C)c1NC(=O)CSc1nnc(-c2ccccc2)n1Cc1ccc2c(c1)OCO2 | · | -2 | 1.3 | 0.8 | 0.1 | -20 | -2 | -10%
O=C(Sc1ccc(Cl)cc1)c1ccccn1 | -3.4 | 46 | 0.1 | 0.5 | 1.9 | -1 | -16 | ·
COc1ccc(CCN2CN(S(=O)(=O)c3ccccc3)c3nc4ccccc4nc32)cc1OC | · | 17 | 0.8 | ? | 0.1 | -4 | 3 | ·
Cc1oc(C(=O)O)cc1COc1ccccc1Cl | · | -3 | 1.0 | 2.7 | -3.0 | -7 | -11 | 2%
COc1ccc(NC(=O)CC2C(=O)N(c3ccc(OC)cc3)C(=O)N2CCc2cccs2)cc1 (stereo not given) | 2.7 | -19 | 0.8 | -1.1 | 1.3 | -24 | 1 | ·
N#Cc1c(Sc2ncc(C(F)(F)F)cc2Cl)nsc1C/C=N\OCc1c(F)cccc1Cl | · | -7 | 0.6 | 12 | -5.6 | 6 | -28 | -4%
Cc1cc(N2C(=O)C3C4CCC(C4)C3C2=O)no1 (stereo not given) | -1.3 | -14 | 0.9 | 2.3 | 2.6 | 8 | 0 | -3%
CS(=O)(=O)N1CCC(C(=O)Nc2ccc(OCc3ccccc3)cc2)CC1 | · | -4 | -0.1 | 0.2 | -3.4 | -7 | -4 | 2%
Cc1ccccc1CNC(=O)CCNS(=O)(=O)c1ccc(OC(F)(F)F)cc1 | 0.7 | · | 0.4 | · | 7.6 | · | -10 | -17%
Cc1ccsc1/C=N/NC(=O)CNC(=O)c1ccc(S(=O)(=O)N2CCOCC2)cc1 | -0.3 | -10 | 0.5 | 1.7 | 4.7 | -13 | 4 | ·
CO/N=C/C(C#N)=C/c1cc(C(=O)c2ccccc2)cn1C | -0.9 | 8 | ? | -1.4 | -2.1 | 31 | 3 | ·
COc1cccc(-n2c(-c3ccccc3)c[nH]c2=S)c1 | -1.2 | -27 | 0.4 | 3.2 | -4.4 | -12 | -18 | ·
CCOC(=O)CC1CCCCN1Cc1cn[nH]c1-c1ccc(F)cc1F (stereo not given) | -23 | -1 | 0.3 | -0.9 | 3.2 | 25 | -6 | 1%
Next structures follow.
SMILES | MLL AF4-AF9 inh | T cruzi repl | A1 inh | RanGTP-Impb inh | LANA-H2A inh | Calb FLC | Beta apoptosis | Vif A3G
CCOC(=O)CC1C(=O)NCCN1C(=O)c1c(F)cccc1F (stereo not given) | · | -6 | 0.6 | 3.4 | 3.9 | -2 | -1 | 1%
COc1ccc(C(=O)Nc2ccc(Nc3ccccc3)cc2)cc1[N+](=O)[O-] | 2.3 | 15 | 0.0 | -9.8 | -2.4 | -9 | 16 | 7%
Cc1ccc(/C=N/NC(=O)CSc2nc3ccccc3o2)cc1 | · | -5 | 1.4 | 0.0 | 4.7 | -1 | -2 | ·
CC1(C)NC(=O)N(CCCCOc2ccc(Cl)cc2C=O)C1=O | -0.4 | 16 | 0.3 | ? | -1.8 | 3 | 1 | 6%
COc1ccc(CNC(=O)CN(Cc2ccc(C)cc2)C(=O)c2csnn2)cc1 | -0.7 | -3 | -0.9 | 7.6 | -3.2 | 7 | -1 | -1%
O=C(NCCC1CCCCN1S(=O)(=O)c1ccc(F)cc1)C(=O)Nc1ccccc1F (stereo not given) | -8.3 | -7 | 0.5 | 3.8 | -3.9 | 8 | · | 0%
CCN(C(=O)c1cccc(Br)c1)C1CCS(=O)(=O)C1 (stereo not given) | -13 | -2 | 0.1 | 6.2 | -4.3 | 2 | 1 | -1%
CC(C)c1ccccc1NC(=S)NCC1(N(C)C)CCCCC1 | 2.2 | 9 | 0.7 | 1.6 | -17 | -11 | -6 | ·
C#CCNC(=O)C1=C[C@H](c2ccc3c(c2)OCO3)C[C@H](OCc2ccc(CO)cc2)O1 | -1.3&-0.8 | 9 | 0.0 | 3.6 | -0.9 | -20 | 1 | 6%
Fc1ccc(N=c2ssnc2Cl)c(F)c1 | -3.3 | -18 | 0.0 | -2.0 | -7.6 | 0 | 3 | 23%
Cc1nnc(SCC(=O)c2cc(C)n(-c3ccc4c(c3)OCO4)c2C)s1 | · | -2 | -0.3 | 5.3 | 27* | -11 | 15 | 15%
S=c1[nH]nc(-c2cccnc2)n1/N=C/c1ccc(Br)s1 | · | -5 | 0.5 | 6.9 | 0.8 | -3 | -10 | ·
Cc1c(C(=O)NCCCN2CCOCC2)sc2nc(-c3ccccc3)cn12 | 0.2 | -28 | -0.1 | -1.2 | -4.1 | -2 | -7 | 4%
O=C(NCCCn1ccnc1)c1ccc2ccccc2c1 | -0.8 | 1 | 0.5 | 4.2 | 1.1 | 9 | -3 | -7%
CN1CC=C2C(C#N)=C(N)C(C#N)(C#N)[C@H](c3cccs3)[C@H]2C1 | · | 36 | 0.5 | 55* | 13 | 2 | -2 | ·
O=C(COC(=O)c1cc2ccccc2cc1O)NC1CCCCC1 | -4.7 | · | -1.0 | · | 1.9 | · | 6 | ·

Assay outcomes (PubChem BioAssay)
